# TsaE inh = YjeE (TsaE) inhibition, E. coli. P0AF67. purified YjeE, fluorescence polarisation of a bound ADP probe. Potency, µM. 0.05% of 71,000 active; active = well fitted falling curve; inconclusive = weaker or top-dose-only fall, or a rising curve; inactive = flat or poorly fitted curve;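 also: top concentration of the series not given in the record; excess ADP was the control for the full effect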
#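 Fluorescence polarization of a BODIPY Texas Red–ADP probe (2 uM) bound to purified YjeE (10 uM) was read after 15 min room-temperature incubation with compounds. Loss of polarization marks inhibitors; ADP serves as titrated control.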
# PK Bst = modulators of Bacillus stearothermophilus pyruvate kinase | partly purified Bacillus stearothermophilus pyruvate kinase, luminescence ATP production; ribose 5-phosphate activator present at AC10 | Potency, µM | 1.2% of 51,000 active; in the data active means potency below about 11 µM; inconclusive means mostly about 12 µM to 25 µM; inactive means weaker than that;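 the screen sought inhibitors and activators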;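 also: potency is read from the fitted curve at half-maximal effect; scaled between full activation by ribose 5 phosphate and full inhibition by luteolin; about four in five hits inhibit and the cells do not say which; series up to 57 µM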
# * marks the source's active call; other numbers are inactive results; i = inactive; ? = inconclusive; nt = not tested or not shown.
# Values run as follows: TsaE inh	PK Bst
- COc1ccc(C2=Nn3c(nnc3-c3ccccn3)SC2)cc1
 : nt	>25.6
- CCSc1cc(C2C(C(=O)OC)=C(C)NC3=C2C(=O)CCC3)c(C)o1 (centres undefined)
 : i	>57
- O=c1ccc2cc3ccoc3cc2o1
 : i	nt
- COc1cccc(NC(=O)CC2SC(=Nc3ccccc3)NC2=O)c1 (centres undefined)
 : nt	>25.6
- CCCOc1ccc2ccccc2c1/C=N/n1cnnc1
 : i	nt
- COc1cc(S(=O)(=O)N2CCN(c3ccccc3)CC2)ccc1Cl
 : i	nt
- Cc1ccccc1NC(=O)c1c(O)c2cccc3c2n(c1=O)CCC3
 : i	>57
- Cc1cc(NC(=O)Cn2c(=O)n(Cc3ccccc3)c(=O)c3ccccc32)no1
 : i	>57
- COc1ccc(Br)cc1CNC(=O)CCc1nc(-c2ccccc2F)no1
 : i	>57
- O=C(CCCCCN1C(=O)CCC1=O)Nc1ccc2c(c1)OCCO2
 : i	>57
- COc1ccc(-c2nnc3sc(-c4cccs4)nn23)cc1OC
 : i	2.61*
- COC(=O)c1ccccc1NS(=O)(=O)c1ccc(F)cc1
 : i	>57
- Cc1cnc(CNc2ncnc3ccc(-c4ccc(C(=O)N(C)C)cc4)cc23)cn1
 : i	nt
- Cc1ccc(S(=O)(=O)NC(=O)COc2ccccc2C(N)=O)cc1
 : i	>57
- COc1ccc(-n2c(=O)c(-c3ccccc3)nc3cnc(N4CCOCC4)nc32)cc1
 : i	nt
- Cc1ccccc1-c1nc(N(C)C)c2ccccc2n1
 : i	nt
- Cc1ccc(NC(=O)C2CCCN(S(=O)(=O)c3c(C)noc3C)C2)nc1 (centres undefined)
 : i	>57
- O=C(O)c1ccc(-n2c(-c3ccccc3)n[nH]c2=S)cc1
 : i	>57
- Cc1cccc(C)c1N(CC(=O)Nc1cccc(N(C)S(C)(=O)=O)c1)S(C)(=O)=O
 : i	>57
- COc1ccc(C2(C(=O)NCCCN(C)C)CCOCC2)cc1
 : i	nt
- CCCC(c1nnnn1C1CCCC1)N1CCN(c2ccccc2F)CC1 (centres undefined)
 : i	>57
- CCOC(=O)c1cc(NC(=O)c2cccnc2)cc(C(=O)OCC)c1
 : i	>57
- CCn1c(C)nc2cc(S(=O)(=O)N3CCCC3)ccc21
 : i	nt
- COc1ccc(C(=O)NCC(C)CN(C)C)cc1 (centres undefined)
 : i	>57
- O=C(CN(c1ccccc1F)S(=O)(=O)c1ccccc1)N1CCCCCC1
 : i	nt
- O=C(c1ccc(F)cc1)C1CCN(C(=O)NCc2ccccc2)CC1
 : i	>57
- CC(=O)NCCNc1ccnc(-c2ccccc2C)n1
 : i	nt
- CC(C)C(=O)Nc1nnc(SCC(=O)NCc2cccs2)s1
 : i	>57
- CCc1ccc(C(=O)CSc2ncn[nH]2)cc1
 : i	>57
- O=C(Nc1cccc(NC(=O)N2CCN(c3ccccc3)CC2)c1)N1CCN(c2ccccc2)CC1
 : i	>57
- CC(C)N1C(=O)CCC1C(=O)NCc1ccccc1Cl (centres undefined)
 : i	nt
- CCOC(=O)N1CCC(C(=O)Nc2ccc(OCC)cc2)CC1
 : i	nt
- O=C(c1cn(-c2ccccc2)nc1-c1cccs1)N1CCN(c2ccccn2)CC1
 : i	i
- Cc1cc2c(c(N3CCOCC3)n1)C(=O)OC2
 : i	>57
- Cc1ccc(-c2nc(-c3cccnc3)no2)cc1
 : i	?
- COc1ccc(OC)c(S(=O)(=O)N2CCCc3ccccc32)c1
 : i	nt
- N#Cc1nc(Cc2cccc3ccccc23)oc1N1CCC(C(N)=O)CC1
 : i	>57
- COCCn1c(=O)c(-c2cn(C)c3ccccc23)nc2cnc(N3CCNCC3)nc21
 : i	nt
- CC(Sc1nnc(-c2ccc(Cl)cc2)n1C)C(N)=O (centres undefined)
 : i	>57
- CCCN(CCc1ccccc1)[C@H]1CCc2c(O)cccc2C1
 : i	nt
- CSc1nnc(-c2ccc(S(=O)(=O)N3CCCC3)cc2)n1C
 : i	>57
- COc1ccc(C(=O)Nc2nnc(-c3ccccc3)o2)cc1OC
 : i	>57
- CN(C)c1ccc(C2N3CC4(C)CN2CC(C)(C3)C4O)cc1 (centres undefined)
 : i	nt
- CCn1c(CSc2nc(C)cs2)nc2cc(S(=O)(=O)N(C)C)ccc21
 : i	>57
- CCOCCCn1c(=S)[nH]c2cc(C(=O)N3CCN(C)CC3)ccc2c1=O
 : i	>57
- COc1ccc(C2NC(c3ccc(OC)c(OC)c3OC)C(C)C(=O)C2C)c(OC)c1OC (centres undefined)
 : i	>57
- CCOc1ccccc1N1CCN(S(=O)(=O)c2ccc3c4c(cccc24)C(=O)N3)CC1
 : i	>57
- C=CCn1cnc2c(c1=O)c1nc3ccccc3nc1n2-c1ccc(C)cc1
 : nt	>25.6
- CC(C)CC(=O)Nc1cccc(-c2cn3ccsc3n2)c1
 : i	i
- Cc1ccc(Cn2c(=O)c3ccccc3n3c(SCC(=O)N4CCCCC4C)nnc23)cc1 (centres undefined)
 : i	>57
- COc1cc2c(cc1NC(=O)C1CCCO1)oc1ccccc12 (centres undefined)
 : i	nt
- O=C(NCc1cn2ccsc2n1)c1c(F)cccc1Cl
 : i	nt
- COc1ccc(C2CC(c3ccc(Br)cc3)Nc3nc(N)nn32)cc1 (centres undefined)
 : i	>57
- COC(=O)c1ccc(CSc2nnnn2Cc2ccccc2)cc1
 : i	>57
- c1ccc2c(N3CCNCC3)nc(-c3ccoc3)nc2c1
 : i	nt
- CCOc1ccc(C)cc1S(=O)(=O)NC1CCCCC1
 : i	>57
- CN(CCCC(=O)Nc1ccncc1)S(=O)(=O)c1ccc(Cl)cc1
 : i	i
- CCCCc1c(O)nc(SCC(=O)NCC2CCCO2)[nH]c1=O (centres undefined)
 : i	>57
- CC(=O)c1c(C)[nH]c(C(=O)COC(=O)CNS(=O)(=O)c2ccccc2)c1C
 : i	>57
- COc1cccc(NC(=O)N2CCN(c3ccc(C(F)(F)F)cn3)CC2)c1
 : i	>57

# Further records follow:
# Values run as follows: TsaE inh	PK Bst
- C=CCn1c(SCC(=O)NCCCC)nc2scc(-c3ccco3)c2c1=O
 : i	>57
- CC(=O)c1c(C)[nH]c(C(=O)OCn2nnc3ccccc3c2=O)c1C
 : i	>57
- CCOCCCNC(=O)CSc1ccccc1
 : i	>57
- Cc1ccc(-c2nn(-c3ccccc3)cc2/C=C(\C#N)c2cccc(C#N)c2)o1
 : i	>57
- O=C(NCc1ccco1)Nc1cccs1
 : i	>57
- O=C(CSc1nc2c(cnn2-c2ccc(F)cc2)c(=O)[nH]1)N1CCCCC1
 : i	nt
- CCCNc1nc(N2CCOCC2)nc(N2CCOCC2)n1
 : i	nt
- O=C(CSc1nc2ccccc2o1)Nc1ccccc1N1CCCCCC1
 : i	>57
- S=c1[nH]nc(COc2ccc3c(c2)OCO3)n1-c1ccccc1
 : i	>57
- CCN1CCN(c2ncnc3c2oc2nc(C(C)C)c4c(c23)CCC4)CC1
 : i	>57
- CCOC(=O)c1c(C)[nH]c(C(=O)Nc2ccc3c(c2)OCO3)c1C
 : i	i
- COCC(=O)Nc1nc2n(n1)C(c1ccccc1Cl)CC(c1ccc(OC)cc1)N2 (centres undefined)
 : i	>57
- N#Cc1cn(Cc2ccccc2)c2ccccc12
 : i	>57
- Cc1ccc2c(CC(=O)NCC3COc4ccccc4O3)coc2c1 (centres undefined)
 : i	>57
- COc1ccc(NC(=O)C(C)Oc2ccc(/C(C)=N\O)cc2)cc1 (centres undefined)
 : i	>57
- Cc1cc(C(=O)Nc2c(C)nn(Cc3c(Cl)cccc3Cl)c2C)no1
 : i	>57
- COc1cc(C(=O)Nc2ccc3c(c2)OCCO3)ccc1-n1cnnn1
 : i	>57
- O=C(C1CCN(S(=O)(=O)c2cccc3cccnc23)CC1)N1CCN(c2ccccn2)CC1
 : i	i
- CCOC(=O)COc1cccc2c(=O)n(CC(=O)NCc3ccc4c(c3)OCO4)ccc12
 : i	nt
- CC1(C)CC(=O)c2cc(OCC(=O)O)ccc2O1
 : i	>57
- NCCCCCCNS(=O)(=O)c1ccc2c(Cl)cccc2c1
 : i	nt
- CCN(CC)C(=O)CN(C#N)c1nc(NC(C)C)nc(NC(C)C)n1
 : nt	>25.6
- CCOc1ccc2nc(N3CCCC(C(=O)NCCCN4CCOCC4)C3)sc2c1 (centres undefined)
 : i	nt
- CC(SCC(=O)Nc1ccc(S(=O)(=O)N2CCCCC2)cc1)C(=O)O (centres undefined)
 : i	>57
- N#CCCn1cc(C(CC(=O)c2ccc(Br)cc2)C(=O)O)c2ccccc21 (centres undefined)
 : i	nt
- Oc1ccc(Cn2c(-c3ccc(O)cc3)nc3ccccc32)cc1
 : i	nt
- O=C1c2ccccc2C(=O)c2c(NC3CCCCC3)ccc(Nc3ccc(S(=O)(=O)O)cc3)c21
 : 12.6µM*	nt
- COC(=O)c1sc(=S)sc1C(=O)OC
 : i	>57
- CSCCC(CO)NC(=O)OCc1ccccc1 (centres undefined)
 : nt	>25.6
- O=C1Nc2ccccc2C12OCCS2 (centres undefined)
 : i	>57

# 2 of the compounds above, with values ahead of the structure.
TsaE inh,PK Bst,canonical_smiles
i,>57,CC1(C)CC(=O)c2cc(OCC(=O)O)ccc2O1
i,nt,NCCCCCCNS(=O)(=O)c1ccc2c(Cl)cccc2c1

# Continuation.
canonical_smiles | TsaE inh | PK Bst
COc1ccc(N2CCN(C(=O)C(OC(C)=O)c3ccccc3)CC2)cc1 (centres undefined) | i | >57
c1ccc2c(c1)oc1c(N3CCOCC3)ncnc12 | i | nt
CC(C)[C@H](NC(=O)NCCc1ccc(Cl)cc1)C(=O)O | i | >57
COc1nc(NC23CC4CC(CC(C4)C2)C3)nc(OC)n1 | i | nt
CC(C)(c1ccc(O)cc1)c1ccc(O)cc1 | i | nt
Cc1ccc(S(=O)(=O)CCC(=O)OCC(=O)N2CC(=O)Nc3ccccc32)cc1 | i | nt
C=CCNc1nc2c(c(=O)[nH]c(=O)n2C)n1Cc1cccc(C)c1 | i | nt
CCOc1cccc(NC(=O)C2CC(=O)N(C)C2)c1 (centres undefined) | i | >57
O=C(NCc1ccc2c(c1)OCO2)c1ccccn1 | i | >57
CCOc1ccc(OCC)c(NC(=O)C2CCCN(c3nc(C)cc(C)n3)C2)c1 (centres undefined) | i | >57
CC(C)C[C@H]1C(=O)N2CCC[C@@H]2[C@]2(O)O[C@](NC(=O)[C@H]3C=C4c5cccc6[nH]c(Br)c(c56)C[C@H]4N(C)C3)(C(C)C)C(=O)N12 | i | nt
CC(=O)N(C[C@@H](C)C(=O)O)c1c(I)cc(I)c(N)c1I | i | nt

# 7 entries from above, arranged by SMILES length, lowest first.
canonical_smiles | TsaE inh | PK Bst
CC(C)(c1ccc(O)cc1)c1ccc(O)cc1 | i | nt
O=C(NCc1ccc2c(c1)OCO2)c1ccccn1 | i | >57
c1ccc2c(c1)oc1c(N3CCOCC3)ncnc12 | i | nt
CCOc1cccc(NC(=O)C2CC(=O)N(C)C2)c1 (centres undefined) | i | >57
COc1nc(NC23CC4CC(CC(C4)C2)C3)nc(OC)n1 | i | nt
COc1ccc(N2CCN(C(=O)C(OC(C)=O)c3ccccc3)CC2)cc1 (centres undefined) | i | >57
Cc1ccc(S(=O)(=O)CCC(=O)OCC(=O)N2CC(=O)Nc3ccccc32)cc1 | i | nt

# Remaining list, next part.
canonical_smiles | TsaE inh | PK Bst
CCCCNC(=O)C1CCCN(S(=O)(=O)c2ccc(-n3cnnn3)cc2)C1 (centres undefined) | i | >57
CN(c1ccc(C(=O)O)cc1)S(=O)(=O)c1ccc(Cl)cc1 | i | ?
COc1ccc(OC)c(NC(=O)C2CCCCC2C(=O)O)c1 (centres undefined) | i | >57
Cc1ccc(NS(=O)(=O)c2ccc(OCC(=O)NCc3ccco3)cc2)cc1 | i | >57
Cc1cc(=O)oc2c1c(C)nn2-c1nn[nH]n1 | i | >57
CC1=C(C(=O)O)N2C(=O)[C@@H](NC(=O)[C@@H](N)c3ccccc3)[C@@H]2SC1 | i | nt
CN(C)c1ncc2nc(CCc3ccccc3)c(=O)n(Cc3ccc(F)cc3)c2n1 | i | nt
O=C(Cn1cnc2c(oc3ccccc32)c1=O)c1ccccc1 | i | >57
COc1ccc(CN(CC(=O)NCc2ccco2)C(=O)CCC(=O)Nc2nccs2)cc1 | i | >57
Cc1noc(C)c1CSc1nc2ccccc2c(=O)n1-c1ccc(F)cc1F | i | >57
CCOc1ccc(OCC)c2sc(C)nc12 | i | 3.4*
CCN1CCCC1CNC(=O)Cn1cnc2sc(C)c(S(=O)(=O)N3CCC(C)CC3)c2c1=O (centres undefined) | i | >57
Cn1c(=O)cc(SCC(=O)NCC2COc3ccccc3O2)c2ccccc21 (centres undefined) | i | >57
CC(O)c1cccc(NC(=O)CCC(=O)O)c1 (centres undefined) | i | nt
N#Cc1ccc(CN2CCC3(CC2)CCN(C(=O)c2csnn2)CC3)cc1 | i | nt
CC(=O)NCC(=O)OC(C)C(=O)Nc1ccc(C(C)=O)cc1 (centres undefined) | i | >57
O=C1OCc2cc(NS(=O)(=O)c3cccs3)ccc21 | i | >57
Nc1c2c(nc3ccccc13)N(c1ccccc1)CC2 | nt | >11.4
CC(=O)Oc1ccc(/C=c2\sc3ncnn3c2=O)cc1 | i | nt
Cc1ccc(C)c(O)c1 | i | nt
COc1ccccc1-c1cc(C(F)(F)F)nc(S(=O)(=O)CCCC(=O)NC(C)C)n1 | i | >57
CCSc1nnc(-c2ccc(OC)cc2)o1 | i | nt
COc1ccccc1NC(=O)CNC(=O)c1ccccc1 | i | >57
CCn1c(COc2cccc(C)c2)nnc1SCC(=O)Nc1cccc(C(=O)OC)c1 | i | >57
CSc1nc2c(c(=O)n1-c1ccc(C)cc1)SCC2 | i | >57
Cc1cccc2cc(CN(Cc3nnnn3Cc3ccccc3)C3CCCC3)c(=O)[nH]c12 | i | >57
C=CCSc1nc2c(cc1C#N)CCC2 | i | >57

# Some of the compounds tested; rates above refer to the full screens.
